Screening data as filed in PubChem BioAssay.
TRPV1 potentiator: enhances activation of the human vanilloid receptor TRPV1 | TRPV1-expressing cells, Fluo-8 calcium influx, capsaicin EC20 potentiation; host cell line not named in the record; control for the full effect not named in the record | potentiation, % at 8.33 µM | hit rate 0.02% among 320,000; active means potentiation above 80%; inconclusive means 30% to 80%; inactive means below 30%; also: 0% is about no effect
Target sequence (Q8NER1 whole entry, looked up): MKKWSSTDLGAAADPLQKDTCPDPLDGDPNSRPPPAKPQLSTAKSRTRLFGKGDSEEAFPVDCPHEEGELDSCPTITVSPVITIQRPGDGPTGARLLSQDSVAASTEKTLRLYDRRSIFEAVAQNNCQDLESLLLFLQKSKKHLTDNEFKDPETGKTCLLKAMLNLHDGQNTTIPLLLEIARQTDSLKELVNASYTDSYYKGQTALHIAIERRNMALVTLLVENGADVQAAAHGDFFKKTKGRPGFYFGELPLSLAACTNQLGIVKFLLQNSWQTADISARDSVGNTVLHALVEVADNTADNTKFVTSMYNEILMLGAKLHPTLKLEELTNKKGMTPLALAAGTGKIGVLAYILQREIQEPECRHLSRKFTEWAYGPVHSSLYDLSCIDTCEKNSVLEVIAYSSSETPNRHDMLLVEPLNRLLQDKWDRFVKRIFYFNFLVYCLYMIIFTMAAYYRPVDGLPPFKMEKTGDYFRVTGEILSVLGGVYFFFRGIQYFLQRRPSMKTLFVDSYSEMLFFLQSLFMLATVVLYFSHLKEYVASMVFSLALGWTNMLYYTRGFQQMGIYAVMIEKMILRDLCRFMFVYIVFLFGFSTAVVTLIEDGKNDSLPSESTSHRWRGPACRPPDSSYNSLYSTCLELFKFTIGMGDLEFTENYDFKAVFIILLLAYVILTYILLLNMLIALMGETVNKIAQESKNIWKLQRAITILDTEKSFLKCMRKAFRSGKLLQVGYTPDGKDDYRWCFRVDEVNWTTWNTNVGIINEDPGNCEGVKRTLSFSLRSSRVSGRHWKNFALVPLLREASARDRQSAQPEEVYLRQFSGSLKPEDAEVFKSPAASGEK
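Cells expressing TRPV1 were dye-loaded with Fluo-8 and read kinetically: 10 s baseline, 3 min after compound (agonist portion), then 2 min after EC20 capsaicin (allosteric enhancer portion). Calcium-bound dye fluorescence at 480/520 nm.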
PINK1 modulator: changes PINK1 expression; PINK1 immunofluorescence, high-content cytometry, 24 h; AID 624263; hit rate 0.2% among 410,000; Potency, µM (titrated, usually from 76.6 µM), for inactives: at the top dose activation (PINK1 increase), hits mostly activators; active = well fitted activation curve with a large enough effect; inconclusive = small, poorly fitted or top-dose-only effect; inactive = flat fitted curve, though single readings scatter; cell line not stated here;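 also: potency is read from the fitted curve at half-maximal effect; % of control where 0% means no effect; nearly all actives have a fitted effect of over 65% in size; a mitochondrial uncoupler was the plate control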
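Decision-based qHTS: stable cells, 24 h exposure to five compound concentrations, CCCP as control. Fixed cells stained for PINK1 plus nuclear, mitochondrial and cell markers, cytometer read.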
D2 potentiator: human D2 receptor positive allosteric modulation | DiscoveRx D2 beta-arrestin cells, luminescence, 90 min; 100% = 57 uM dopamine signal | potentiation, % (no concentration beside the values) | hit rate 0.23% among 360,000 | AID 624464; active = potentiation of 50% or more; inconclusive = 30% to 50%; inactive = 30% or less;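 also: compound concentration not given in the record; tested on top of an EC20 dose of dopamine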
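PathHunter D2 cells, attached overnight at 37 deg C, received compound in DMSO plus dopamine at EC20 (50 nM final) for 90 min at 37 deg C. Beta-arrestin recruitment was read as luminescence after 1 h with detection reagent at ambient temperature.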
Sfp PPTase inh: inhibitors of Bacillus subtilis Sfp phosphopantetheinyl transferase | Biochemical Sfp PPTase activity, qHTS | hit rate 3.5% among 310,000 | Potency, µM, for the others: max response, negative = inhibition, most hits filed as inhibitors; active = well fitted inhibition curve with a large enough effect; inconclusive = small, poorly fitted or top-dose-only effect, or another doubt; inactive = no such curve, though single readings can be large or run the other way;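 also: the enzyme is Sfp with the accession as filed and its product quenches rhodamine fluorescence; potency is read from the fitted curve at half-maximal effect; 0% = enzyme reaction without inhibitor and -100% = no enzyme wells; top concentration of the series not given in the record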
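Sfp 15 nM + cpd, 15 min RT; start w/ rhodamine-CoA 5 uM, BHQ-2-YbbR 12.5 uM (final); 50 mM Hepes pH 7.6, 10 mM MgCl2, 0.01% NP-40, 0.01% BSA; read 525/598 nm at 0 and 30 min.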
D2 ag: agonists of human D2 dopamine receptor (beta-arrestin); hit rate 0.084% among 360,000; activation, % (concentration not given with the values); DiscoveRx PathHunter D2 beta-arrestin, luminescence, 90 min; 100% = 57 uM dopamine signal; P14416; in the data active = activation above about 40%; inconclusive = about 15% to 40%; inactive = below about 15%; also: compound concentration not given in the record; the text of the record calls up to 30% inactive
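Agonist mode: compounds alone added to overnight-plated D2 PathHunter cells for 90 min at 37 C, with 57 uM final dopamine (EC100) defining full response. Beta-arrestin recruitment detected by chemiluminescent reagent, read after 1 h at ambient temperature.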
CtBP-E1A inh: CtBP/E1A binding inhibition; hit rate 0.49% among 340,000; AlphaScreen GST-E1A/His-CtBP binding, 1536-well; hits give low values; control for the full effect not named in the record; activity change, % (test concentration not listed); AID 651724; in the data active means activity change below about -65%; inconclusive means about -30% to -65%; inactive means above about -30%; also: % is scaled to controls: 0 for no effect and ±100 for the full control effect; compound concentration not given in the record
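Homogeneous bead-based format: GST-tagged E1A captured on glutathione donor beads, His-tagged CtBP on nickel acceptor beads; compounds precede bead addition by 2 h at 37 °C.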
Six1-Eya2 blk: inhibitors of human Six1/Eya2 interaction; Q15475+O00167; AlphaScreen GST-Six1/His-Eya2 binding, biochemical; hits give low values; control for the full effect not named in the record; activity change, % (concentration not given with the values); hit rate 0.56% among 360,000; in the data active = activity change below about -65%; inconclusive = about -30% to -65%; inactive = above about -30%; also: % is scaled to controls: 0 for no effect and ±100 for the full control effect
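Six1/Eya2 binding was read as AlphaScreen signal after compounds were pinned into GST-Six1 plus His-tagged Eya2 (5X stock 250/500 nM) in pH 8.0 Tris/NaCl/TCEP buffer, beads added, then incubated 1 h, 37 C, dark.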
* = called active by the depositor; ? = inconclusive; . = not tested or not shown; & = joins results of further samples; [ ] = remark or other dose.

structure	TRPV1 potentiator	PINK1 modulator	D2 potentiator	Sfp PPTase inh	D2 ag	CtBP-E1A inh	Six1-Eya2 blk
Fc1ccc2[nH]c3c(NCCN4CCOCC4)ncnc3c2c1	3	-1.7%	7	-8%	1.9	-3	-2
CCN(CC)S(=O)(=O)c1ccc(-c2cn3cc(Cl)ccc3n2)cc1	-18	9.8%	8	14%	-0.2	7	-3
NC(=O)c1nsc(C(=O)N(c2ccc(F)cc2)C(C(=O)NCC2CCCO2)c2ccc3ncccc3c2)c1N (stereo unspecified)	13	-1.4%	11	6%	3.8	-6	-2
O=C1COc2ccc(NC(=O)N3CCN(c4ccc(F)cc4)CC3)cc2N1	0	-11%[38.3 µM]	-13	16%	-1.6	3	-2
O=C(CC1c2ccccc2Oc2ccccc21)Nc1ccccc1C(F)(F)F	-21	8.4%	-14	-15%	-2.3	0	21
NS(=O)(=O)c1ccc(NC(=O)/C(=C/c2ccncc2)NC(=O)c2ccccc2)cc1	3	-0.2%	-1	-1%	-1.0	0	5
C=CCn1c(COc2ccc(CC)cc2)nnc1SC/C(O)=C(\C#N)c1nc2ccccc2[nH]1	-13	0.2%	-4	7%	-1.9	-6	-7
Cc1nn(-c2ccccc2)c(Cl)c1C(=O)NCC1CCCO1 (stereo unspecified)	-18	1.4%	-9	.	-5.9	10	-2
CCc1c(C)nc(SCC(=O)Nc2ccc(Br)cc2)[nH]c1=O	18	7.2%	-7	5%	-2.3	0	7
Cc1ccc(S(=O)(=O)N2CCN(C(=O)CSc3nc4ccccc4o3)C2)cc1	-5	2.4%	-7	4%	0.0	-9	2
CCOCCOC(=O)C1=C(C)N(C)C(=O)NC1c1ccccc1F (stereo unspecified)	-5	8.7%[38.3 µM]	-1	1%	-0.5	-2	-1
O=c1c(-c2ccc(F)cc2)[n+]([O-])c2ccccc2n1OCc1ccccn1	0	-0.3%	-3	7%	-2.2	.	-1
COC(=O)c1scc(C)c1NC(=O)C1CCCCC1	-3	-1.3%	-2	8%	0.4	-2	1
COc1ccc(Cl)cc1NC(=S)Nc1cccnc1	5	-0.9%	-13	25µM*	-2.4	5	0
Cc1cc(C(=O)O)ccc1-c1ccc(/C=C2\NC(=O)N(Cc3ccccc3Cl)C2=O)o1	11	0.3%	-2	13µM*	0.1	0	-3
COc1cccc(OC)c1Oc1ccc(C(F)(F)F)cn1	9	?	-5	21%	2.1	14	6
COC(=O)c1ccccc1CSc1nsc(/C=C/N(C)C)c1C#N	-12	-0.4%	-2	16µM*	12	-1	-7
CCn1ncc([N+](=O)[O-])c1C(=O)N1CCCC1	-10	2.2%	4	19%	-2.8	-3	3
COC(=O)C1=C(C)N(Cc2ccccc2)C(=NCc2ccco2)N[C@H]1c1cccc(F)c1	.	0.5%	-6	.	-3.7	-3	0
COc1ccc(C(=O)COC(=O)CCN=C2NS(=O)(=O)c3ccccc32)c(OC)c1	4	18%	16	.	-4.7	5	-4
CCOC(=O)Cc1csc(NC(=O)c2cccc(OC)c2)n1	-14	-0.4%	8	8%	-3.3	-2	0
CC(/C=C/c1ccccc1)=N\NC(=S)NC(C)C	-20	1.1%	-22	17%	-9.0	-11	-25
CCN(C(=O)COC(=O)c1cc(S(=O)(=O)N2CCc3ccccc32)ccc1OC)C1CCS(=O)(=O)C1 (stereo unspecified)	3	1.6%	-2	-30%	-1.2	6	7
Cc1cc(SCC(=O)NCC(c2cccs2)N2CCOCC2)c(C)cc1Br (stereo unspecified)	-12	-1.0%	-36	.	-1.8	0	-9
CCCC1C(c2ccc(OC)cc2)C(C#N)(C#N)C2(C#N)CC1(N)NC2=O (stereo unspecified)	2	25%[38.3 µM]	12	14%	0.2	-1	0
CC(=O)c1cccc(NS(=O)(=O)c2cc3c(cc2C)N(C(C)=O)CCO3)c1	1	-1.6%&0.6%	0	12%	0.6	7	5
CCOc1ccc(CN2CCN(C(=O)c3ccccc3)CC2)cc1	-4	-0.5%	-6	-23%	-3.2	33	27
CCn1c(CCC(N)=O)nnc1SCC(=O)c1cc(C)n(C2CC2)c1C	4	0.0%	-1	.	-4.3	.	-5
COc1ccc(C(=O)Nc2ccc(Cl)c(S(=O)(=O)N3CCOCC3)c2)cc1	.	2.4%	2	.	2.3	?	?
Cc1ccc(C(C(=O)NC2CCCC2)N2CCCCC2)cc1 (stereo unspecified)	-9	-0.1%	-7	-12%	-2.8	3	4
COc1cc(-c2[nH]nc3c2C(c2ccco2)C(C#N)=C(N)O3)cc(OC)c1OC (stereo unspecified)	3	0.0%	-3	6%	1.7	.	4
O=C(CSCc1cccc(Cl)c1)N1CCN(Cc2ccc3c(c2)OCO3)CC1	-1	0.4%	-8	-10%	-5.6	-4	-16
O=C(NC1CCCCC1)C(c1cccnc1)N(CCc1ccccc1)C(=O)Cc1cccs1 (stereo unspecified)	-22	11%	-7	17%	-2.6	1	3
O=C(CCn1nc(-c2ccccc2)c2ccccc2c1=O)N1CCN(c2ccccc2)CC1	1	0.1%	-31	-10%	-2.8	-8	-23
COc1ccc(CNC(=O)[C@H](C)NC(=O)C2CCN(C(=O)[C@@H](N)CCSC)CC2)cc1	0	0.0%	-2	4%	3.3	8	6
COc1cccc(NC(=O)c2ccccc2NS(C)(=O)=O)c1	-5	2.8%[38.3 µM]	-9	12%	-0.8	5	-2
C/C=C\C(=O)Nc1cccc(C2=NOC3(C2)C[C@H](C(N)=O)N(C(=O)Cc2ccc([N+](=O)[O-])cc2)C3)c1 (stereo partly specified)	-42	-0.9%	2	-15%	-0.7	-6	-4
COc1ccc(/C=N\NC(=O)c2ccc(F)cc2)cc1COc1cc(F)ccc1[N+](=O)[O-]	8	1.0%	-1	-5%	-0.6	-4	-6
O=C(NCc1cccnc1)C(=O)Nc1ccc([N+](=O)[O-])cc1	-7	-0.4%	-3	24%	1.1	6	-3
O=C(Nc1ccccc1N1CCCCC1)c1cccc([N+](=O)[O-])c1	1	-1.5%	0	-6%	-6.2	-19	-20
CCOc1ccc(NC(=O)CN(C)C(=O)CCNC(=O)c2ccco2)cc1OCC	5	1.2%	-3	.	5.1	-8	-2
O=S(=O)(c1ccc(Cl)cc1)N1CCC2(CC1)OCCN2S(=O)(=O)c1cccs1	10	-1.7%	16	.	-0.4	3	-9
O=C(NCCc1ccccc1)c1cc(-c2ccccc2)c(N2CCOCC2)s1	.	1.4%	0	.	1.4	-4	-5
CSc1ccc(/C=C(/NC(=O)c2ccccc2)C(=O)NCCCn2ccnc2)cc1	1	4.1%	-5	9%	-2.2	-2	-1
O=C(CCC(=O)Nc1ccccc1Cl)NNC(=S)Nc1ccccc1C(F)(F)F	13	2.9%	-16	9%	-12	2	-1
Cc1nn(CCCC(=O)O)c(C)c1[N+](=O)[O-]	-2	-0.7%	-2	23%	2.8	8	8
Cc1cc(C)nc(Nc2ccc(Br)cc2C(=O)O)n1	10	0.0%	-2	4%	-3.4	0	0
CC1(C)CC(=O)C2=C(C1)NCN(Cc1ccccc1)C2	1	3.9%	-9	7%	0.1	-6	-1
Cc1ccc2nc3sc(C(=O)N4CCCc5ccccc54)c(N)c3cc2c1	-13	14%[38.3 µM]	-9	22%	-1.5	1	-1
O=C(Oc1ccccc1Cl)c1ccc(N2CCOCC2)c([N+](=O)[O-])c1	-9	1.8%	-12	-21%	-2.1	-4	-18

Additional records follow.
structure	TRPV1 potentiator	PINK1 modulator	D2 potentiator	Sfp PPTase inh	D2 ag	CtBP-E1A inh	Six1-Eya2 blk
COc1cc2c3c(c1OC)C1(C=CC(=NO)C=C1)CC3N(C(C)=O)CC2 (stereo unspecified)	-4	-0.6%	-12	2%	-1.2	-2	-1
COc1ccc(C2C(C#N)=C(N)Nc3onc(C(C)(C)C)c32)c(OC)c1 (stereo unspecified)	-2	7.6%	-2	3%	1.7	-4	5
Cc1ccc(-c2csc3ncn(CC(=O)N4CCOCC4)c(=O)c23)cc1	4	2.0%	-9	9%	-4.2	8	0
N#CCSc1nc2c(c(=O)n1Cc1ccco1)C1(CCCC1)Cc1ccccc1-2	3	0.2%	13	-8%	-1.9	-7	-12
Oc1c(Br)cc(/C=N/Nc2ccc(Cl)nn2)cc1Br	-29	0.1%	9	?	-0.3	-8	-27
COc1ccc(-n2c(C)cc(/C=C3\SC(=S)N(Cc4ccco4)C3=O)c2C)cc1	23	2.6%	-2	-4%	-1.2	-23	0
Cc1cc(NC(=NC2CC2)c2ccccc2F)n(-c2ccccc2)n1	3	-0.5%	-8	1%	1.4	-12	3
O=C(Nc1ccccc1)N1CCCCC1c1cccnc1 (stereo unspecified)	-8	-0.8%	7	5%	-0.4	2	5
CC(C)(O)C#Cc1ccc(C(=O)N2CCCC2C(=O)O)s1 (stereo unspecified)	5	-0.6%	-37	13%	-4.9	4	7
Cc1ccc(-n2c(COc3ccccc3)nnc2SCC(=O)O)cc1	.	-0.1%	-5	.	-1.7	5	-1
Cc1cc(C)n2c(C)nnc2c1	-4	4.1%	-2	12%	0.4	6	33
N#Cc1cccnc1N1CCN(C(=O)c2cccc3c2C(=O)c2ccc(-c4ccc(F)cc4OCc4ccccc4)cc2S3(=O)=O)CC1	.	0.2%	-14	.	1.0	-8	-15
O=C(C1CCN(S(=O)(=O)c2c(Cl)cccc2Cl)CC1)N1CCCCCCC1	-27	-0.4%	-1	.	-2.3	-10	4
CCn1c(COc2ccc(=O)n(-c3ccccc3)n2)nnc1SCc1ccccc1	-2	-2.2%	-4	16%	-2.7	2	4
COc1ccc(C(=O)Nc2cc(=O)n(C)c(=O)n2C)cc1	24	-0.1%	-4	-6%	-3.1	.	-14

Reformatted: 3 of the compounds above
mol: O=C(C1CCN(S(=O)(=O)c2c(Cl)cccc2Cl)CC1)N1CCCCCCC1
  TRPV1 potentiator = -27; PINK1 modulator = -0.4%; D2 potentiator = -1; Sfp PPTase inh = .; D2 ag = -2.3; CtBP-E1A inh = -10; Six1-Eya2 blk = 4

mol: CCn1c(COc2ccc(=O)n(-c3ccccc3)n2)nnc1SCc1ccccc1
  TRPV1 potentiator = -2; PINK1 modulator = -2.2%; D2 potentiator = -4; Sfp PPTase inh = 16%; D2 ag = -2.7; CtBP-E1A inh = 2; Six1-Eya2 blk = 4

mol: COc1ccc(C(=O)Nc2cc(=O)n(C)c(=O)n2C)cc1
  TRPV1 potentiator = 24; PINK1 modulator = -0.1%; D2 potentiator = -4; Sfp PPTase inh = -6%; D2 ag = -3.1; CtBP-E1A inh = .; Six1-Eya2 blk = -14
